Pin1 inh = inhibitors of human Pin1. 390,000 compounds, 0.009% hits. AID 504891. Q13526. Pin1 FP peptide displacement, HiFluor488, 10 min. Potency, µM (doses to about 115 µM), for the others: at the top dose activity, negative = inhibition, most hits filed as inhibitors; active means well fitted inhibition curve with a large enough effect in the polarisation, with a control signal flat, not every such curve was filed as active; inconclusive means small, poorly fitted or top-dose-only effect, or effect the other way, or a change in a side signal; inactive means no such curve, though single readings can be large or run the other way; the % refers to the polarisation; further: on the % scale 0 is the no-effect control and ±100 the full control effect
PGK inhibitor = T. brucei PGK inhibition | PGK/GAPDH coupled, Kinase-Glo luminescence, 60 min | Potency, µM (titrated, usually from 57.5 µM), for the others: at the highest dose activity change, negative = inhibition, usual class: inhibitors | P07378 | 380,000 compounds, 0.043% hits; further: on the % scale 0 is the no-effect control and ±100 the full control effect; nearly all actives have a fitted effect of over 60% in size
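Recombinant glycosomal PGK reaction used 1,3-bisphosphoglycerate generated in-well by GAPDH (100nM final) in 100mM TEA pH 7.6, 5mM MgCl2, 0.01% Tween-20. After 60 minutes at room temperature, ATP was read by Kinase-Glo Plus luminescence end-point.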
GLS inh = glutaminase GLS (human) inhibition | O94925 | GLS enzymatic activity, qHTS titration | Potency, µM (highest dose often 45.5 µM), without a hit: at the highest dose activity change, negative = inhibition, usual class: inhibitors | 410,000 compounds, 0.21% hits; further: on the % scale 0 is the no-effect control and ±100 the full control effect
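hKGA in 45 mM KH2PO4 pH 8.2, 0.02% Tween-20 with pin-transferred compounds; 1 mM L-glutamine (stock) plus glutamate oxidase/HRP/Amplex Red coupling added. Fluorescence read initially and after 30 min at RT.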
BLM inh = blocks DNA unwinding by human BLM helicase; P54132; recombinant BLM DNA unwinding, fluorescence dequenching; Potency, µM (titrated, usually from 56.1 µM), inactives show at the top dose activity change, negative = inhibition, actives largely listed as inhibitors; 350,000 compounds, 0.2% hits;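 further: plate controls were vehicle for no effect and no enzyme for full effect; nearly all actives have a fitted effect of over 35% in size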
Target sequence (P54132 whole entry, looked up): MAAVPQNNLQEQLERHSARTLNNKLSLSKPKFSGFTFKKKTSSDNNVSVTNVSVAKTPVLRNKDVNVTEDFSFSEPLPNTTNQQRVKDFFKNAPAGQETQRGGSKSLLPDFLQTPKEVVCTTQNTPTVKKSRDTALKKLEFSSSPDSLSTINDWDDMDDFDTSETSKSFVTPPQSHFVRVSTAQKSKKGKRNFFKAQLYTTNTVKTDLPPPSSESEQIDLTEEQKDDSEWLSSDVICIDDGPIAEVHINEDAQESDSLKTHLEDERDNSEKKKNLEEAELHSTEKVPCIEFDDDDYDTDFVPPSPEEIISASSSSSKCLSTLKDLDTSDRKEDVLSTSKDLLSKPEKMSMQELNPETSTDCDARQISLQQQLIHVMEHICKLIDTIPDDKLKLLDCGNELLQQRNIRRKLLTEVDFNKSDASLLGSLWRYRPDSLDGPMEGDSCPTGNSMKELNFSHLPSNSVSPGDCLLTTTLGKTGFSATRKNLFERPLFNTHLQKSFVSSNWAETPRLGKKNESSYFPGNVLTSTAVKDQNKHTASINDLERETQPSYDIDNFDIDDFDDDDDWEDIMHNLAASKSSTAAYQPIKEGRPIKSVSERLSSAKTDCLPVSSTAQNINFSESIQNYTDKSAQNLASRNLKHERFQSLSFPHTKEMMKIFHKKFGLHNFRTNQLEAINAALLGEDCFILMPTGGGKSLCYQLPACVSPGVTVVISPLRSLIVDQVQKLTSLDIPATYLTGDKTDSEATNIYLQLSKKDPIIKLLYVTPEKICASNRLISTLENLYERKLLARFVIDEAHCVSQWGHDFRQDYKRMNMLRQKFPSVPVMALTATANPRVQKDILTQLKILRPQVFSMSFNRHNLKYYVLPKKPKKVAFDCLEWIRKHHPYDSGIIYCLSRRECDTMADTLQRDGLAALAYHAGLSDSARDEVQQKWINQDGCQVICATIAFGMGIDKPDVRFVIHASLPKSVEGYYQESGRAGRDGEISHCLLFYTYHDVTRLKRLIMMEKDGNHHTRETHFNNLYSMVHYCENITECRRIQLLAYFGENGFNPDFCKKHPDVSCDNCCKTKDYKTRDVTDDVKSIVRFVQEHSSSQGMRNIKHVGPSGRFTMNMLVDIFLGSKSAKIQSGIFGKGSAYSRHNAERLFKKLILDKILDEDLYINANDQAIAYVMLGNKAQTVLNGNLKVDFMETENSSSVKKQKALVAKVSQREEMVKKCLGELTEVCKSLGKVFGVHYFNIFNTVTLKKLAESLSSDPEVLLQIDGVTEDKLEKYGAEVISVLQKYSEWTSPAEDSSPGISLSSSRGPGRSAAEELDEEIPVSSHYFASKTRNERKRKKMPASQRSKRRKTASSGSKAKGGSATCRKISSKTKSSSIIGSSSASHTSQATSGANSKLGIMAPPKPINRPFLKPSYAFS
Pol iota inh = inhibitors of human DNA polymerase iota. Pol iota fluorescent replication assay, 10 min. Potency, µM (highest dose often 115 µM), for the others: top-dose activity, negative = inhibition, most hits filed as inhibitors. 390,000 compounds, 1% hits
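Pol iota at 10 nM preincubated 15 min with compounds at room temperature; reaction started with fluorescent substrate, 50 nM final. Fluorescence read kinetically at 0 and 10 min; buffer-only wells as negative control.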
Starred values were filed as active, the others as inactive; i = inactive; ? = inconclusive; / = no result given; & = joins results of further samples; [ ] = dose if it differs, or a comment. Unless noted, the call rests on the fitted dose curve; in most records, active means well fitted curve in the direction sought with a large enough effect; inconclusive means small, poorly fitted or top-dose-only effect, or another doubt; inactive means no such curve, though single readings can be large; an effect the other way counts as inactive or inconclusive. Potency means the concentration at half of the fitted maximal effect. This is a subset (hit frequency here may not be typical).

Order of values: Pin1 inh, PGK inhibitor, GLS inh, BLM inh, Pol iota inh
COc1ccc(C(=O)Oc2cccc3cccnc23)cc1S(=O)(=O)N1CCOCC1
 : 2%, -3%, -11%, 0%, ?
CS(=O)(=O)c1ccc([C@@H](O)[C@@H](CF)NC(=O)C(Cl)Cl)cc1
 : -2%, -7%, -4%, /, 40%[activator]
COc1ccccc1OCC#CCN1CCCC1
 : -1%, -9%, 7%, 0%, 28%
Cc1ccccc1-c1nc(CS(=O)CC(=O)N2CCN(c3cc(Cl)ccc3C)CC2)c(C)o1 (centres undefined)
 : 10%, i, 0%, -15%, 18%
CCOc1cc2c(cc1OCC)-n1cccc1C(c1ccc(OC)cc1)NC2 (centres undefined)
 : 4%, -4%, 3%, -2%, 11%
Clc1ccc(OCC#CCN2CCOCC2)cc1
 : -5%, 11%, -6%, -2%, 35%[activator]
CCOc1cc2c(cc1OCC)-n1cccc1C(c1ccc(F)cc1)NC2 (centres undefined)
 : 0%, -13%, 1%, -10%, -25%
CCN(CC)c1ccc(C=NN2CCCCCC2)cc1
 : 22%, -1%, -1%, /, 20%
O=C(Cc1ccccc1)N1CCN(Cc2ccc([N+](=O)[O-])cc2)CC1
 : 0%, 1%, 1%, 0%, -8%
NCCc1c[nH]c2ccc(O)cc12
 : 8%, 2%, 0%, 0%, -3%
COc1ccc(-n2c(=S)[nH]c3c(sc(=S)n3-c3ccccc3)c2=O)c(OC)c1
 : 2%, -7%, -2%, -3%, ?
COc1ccc(CN2CCN(C(=O)COc3ccccc3)CC2)c(OC)c1
 : -6%, -12%, -9%, -2%, -2%
Cc1nc2ccc(Nc3nc4cc(S(=O)(=O)N5CCOCC5)ccc4o3)cc2s1
 : 39%[activator], -3%, -17%, -12%, ?
CCOc1ccc(OCC)c(NC(=O)CN2CCN(c3ccc(C)cc3C)CC2)c1
 : -1%, 0%, -4%, -4%, -12%
COc1ccccc1CN1CCN(C(=O)COc2ccc3ccccc3c2)CC1
 : 0%, -5%, 7%, 0%, -9%

One compound at a time, from the list above. Order of screens: Pin1 inh | PGK inhibitor | GLS inh | BLM inh | Pol iota inh
CCOc1cc2c(cc1OCC)-n1cccc1C(c1ccc(F)cc1)NC2 (centres undefined) is listed as 0% | -13% | 1% | -10% | -25%
Clc1ccc(OCC#CCN2CCOCC2)cc1 is listed as -5% | 11% | -6% | -2% | 35%[activator]
COc1ccccc1OCC#CCN1CCCC1 is listed as -1% | -9% | 7% | 0% | 28%
NCCc1c[nH]c2ccc(O)cc12 is listed as 8% | 2% | 0% | 0% | -3%
Cc1ccccc1-c1nc(CS(=O)CC(=O)N2CCN(c3cc(Cl)ccc3C)CC2)c(C)o1 (centres undefined) is listed as 10% | i | 0% | -15% | 18%

The list continues:
Order of values: Pin1 inh, PGK inhibitor, GLS inh, BLM inh, Pol iota inh
CCOC(=O)C1CCN(Cc2c(F)cccc2Cl)CC1
 : -4%, -3%, 3%, -2%, -11%
CN1CCN(c2oc(-c3ccc(COc4ccccc4)o3)nc2C#N)CC1
 : -6%, -7%, -4%, -2%, 27%
CCOc1cc2c(cc1OCC)-n1cccc1C(c1cc(C)c(OC)cc1C)NC2 (centres undefined)
 : 0%, /, 3%, -4%, -18%
Brc1ccccc1OCCCN1CCOCC1
 : 3%, -13%, 7%, -1%, -10%[58.9 µM]
Cc1c(OCC(F)(F)F)ccnc1CS(=O)c1nc2ccccc2[nH]1 (centres undefined)
 : 0%, -8%, 3%&-1%, -10%&4%&2%&-8%&-1%, -1%

Filtered by structure, the entries above containing four or more nitrogen atoms (two)
Order of values: Pin1 inh, PGK inhibitor, GLS inh, BLM inh, Pol iota inh
Cc1nc2ccc(Nc3nc4cc(S(=O)(=O)N5CCOCC5)ccc4o3)cc2s1
 : 39%[activator], -3%, -17%, -12%, ?
CN1CCN(c2oc(-c3ccc(COc4ccccc4)o3)nc2C#N)CC1
 : -6%, -7%, -4%, -2%, 27%

Assay outcomes as filed in PubChem BioAssay.
